Compound activity as filed in PubChem BioAssay.
Sfp inh: qHTS Assay for Inhibitors of Bacillus subtilis Sfp phosphopantetheinyl transferase (PPTase); Biochemical Sfp PPTase activity, qHTS; Potency, µM, for the others: max response, negative = inhibition, hits mostly inhibitors; 310,000 compounds, 3.5% hits; AID 1490, 2009; active = well fitted inhibition curve with a large enough effect; inconclusive = small, poorly fitted or top-dose-only effect, or another doubt; inactive = no such curve, though single readings can be large or run the other way;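 also: the enzyme is Sfp with the accession as filed and its product quenches rhodamine fluorescence; potency is read from the fitted curve at half-maximal effect; 0% = enzyme reaction without inhibitor and -100% = no enzyme wells; top concentration of the series not given in the record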
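After 15 min at room temperature with compound, 15 nM Sfp received 5 uM rhodamine-CoA plus 12.5 uM BHQ-2-ybbR (50 mM Hepes pH 7.6, 10 mM MgCl2). Rate came from the fluorescence difference over 30 min, ex 525/em 598 nm.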
Menin-MLL FL inh: qHTS Assay for Inhibitors Targeting the Menin-MLL Interaction in MLL Related Leukemias: Competition With Fluorescein Labeled MLL-derived Peptide | Fluorescence polarization, fluorescein-MLL peptide displacement from menin | FP activity change, % at 61.4 µM | 290,000 tested, under 10 active | AID 1766, 2009; inconclusive = falling polarisation curve, or a change in total fluorescence; inactive = total fluorescence flat and polarisation flat or rising; no compound was filed as active; the % refers to the polarisation; negative = inhibition;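 also: % of control where 0% means no effect; inhibitors lower the polarisation; unlabelled MLL peptide was the positive control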
* marks the source's active call; other numbers are inactive results; ? = inconclusive; & = joins results of further samples; ! = repeats disagree; [ ] = remark or other dose. These rows are one share of the data; rates above refer to the full screens.

SMILES	Sfp inh	Menin-MLL FL inh
CC(=O)OCC1OC(C#Cc2ccc(C(C)(C)C)cc2)C=CC1OC(C)=O (centres undefined)	-15%	1.8[11.7 µM]
CO[C@]12C[C@@H](COC(=O)c3cncc(Br)c3)CN(C)[C@@H]1Cc1cn(C)c3cccc2c13	5%&-1%	?
O=C1[C@H]2[C@H]3[C@H](O)[C@H](O)C/C(=N/OC[C@@H](O)COCc4ccco4)[C@H]3CC[C@@H]2C(=O)N1Cc1ccc2c(c1)OCO2	9%	0.4[11.7 µM]
C=CCc1cccc(C2C(C)CCC3C(=O)N4C(CCC(C)C4c4cccc(CC=C)c4)C(=O)N32)c1 (centres undefined)	-23%	0.4[11.7 µM]
Cc1ccc(C[C@H](C(=O)O)N2C(=O)c3ccc(C(=O)O)cc3C2=O)c(C)c1	14%	-6.1
COc1ccc(NC(=O)N2CCC3(CC2)CCN(C(=O)c2cccc(F)c2)CC3)cc1	18%	4.6
CSC(N)=NCCCC(N)C(=O)O (centres undefined)	10%	-2.6
CC(C)NC(=O)N1CCC2(CC1)CCN(C(=O)c1cnccn1)CC2	10%	-0.8
CCN(CC)c1ccc(/C=N/NC(=O)c2ccc(O)cc2)cc1	-4%&-4%	-2.0&-2.0
O=c1c(O)c(Br)ccc2c(Br)c(O)c(O)c(O)c12	45µM*	-21
COc1ccccc1N1CCN(CCCCNC(=O)c2ccc(-c3ccc(C(C)=O)cc3)cc2)CC1	14%&-13%	-2.9&-5.5
Cc1nc2cnc(N3CCN(C)CC3)nc2n(CCC#N)c1=O	28%	-3.3
Cc1nc2cnc(N3CCNCC3)nc2n(Cc2ccc(F)cc2)c1=O	-17%	21
CC1CC[C@@]2(OC1)OC1CC3C4CC=C5CC(O)CC[C@@]5(C)C4CC[C@]3(C)C1C2C (some centres undefined)	-1%	1.5
CC(Nc1oc(-c2ccccc2)nc1-c1ccc(C(F)(F)F)cc1)c1ccccc1 (centres undefined)	?	-3.5
CC(=O)[C@H]1CC[C@H]2C3CC=C4C[C@@H](O)CC[C@]4(C)C3CC[C@]12C (some centres undefined)	3%&20%	0.1
COc1ccc(C(=O)N2CCC3(CCCN(C)C3)CC2)cc1	1%	1.6
CN(C)c1ccc(-c2nc(N3CCNCC3)c3ccccc3n2)cc1	-16%	9.9
COC(=O)CCC(C)C1CCC2C3CC[C@H]4CC(O)CC[C@@]4(C)C3CC(O)[C@]12C (some centres undefined)	-6%	0.9
CCCC[C@@H]1CCCO[C@@](C(=O)NCCN2CCOCC2)(C(F)(F)F)C1	14%	8.8
COCCNC(=O)C1(CC(C)C)C=CCN1C(=O)c1ccccc1 (centres undefined)	10%	-3.8
CCCCCCCCCCCCC(C(=O)O)C(C)C(=O)O (centres undefined)	-11%	-1.5
CN(C)c1ncc2nc(-c3ccc(Cl)cc3)c(=O)n(-c3ccccc3)c2n1	-2%	?
COc1cccc(Nc2ncc3nc(-c4ccccc4)c(=O)n(C[C@H]4CCCO4)c3n2)c1	5%	?
Cc1nc(NCc2ccccc2)c2nc(-c3ccccc3)n(CCCN(C)C)c2n1	39%[activator]	-0.4
COCC(=O)N1CCC2(CC1)CCN(C(=O)NC(C)C)CC2	11%	2.7
Cc1o[nH]c(=O)c1CC[C@H](N)C(=O)O	79µM*	?
N[C@H](C(=O)O)[C@H](O)C(=O)O	89µM*!	1.7&-7.9
O=C(c1cnccn1)N1CCC2(CCCN(C(c3ccccc3)c3ccccc3)C2)CC1	1%	-0.5
O=C(c1ccco1)N1CCC2(CCCN(C(c3ccccc3)c3ccccc3)C2)CC1	-12%	18
N#Cc1cccc(NC(=O)N2CCC3(CC2)CCN(C(=O)c2csnn2)CC3)c1	20%	0.8
CNC1=C(Br)C(=O)c2ccncc2C1=O	-26%	-5.2
COC(=O)[C@@]1(Cc2ccc(F)cc2)[C@@H]2[C@@H](CC(=O)[C@H]2CC(=O)C(=O)N2CCCC2)CN1C(=O)c1ccccc1	-6%	14
COC(=O)c1cccc(C23CC4(C2)[C@H](CN(CC2CCCCC2)[C@@H]4c2ccccc2)C3c2ccc(C(F)(F)F)cc2)c1 (some centres undefined)	15%	17
CN(C)c1ncc2nc(-c3ccccc3)c(=O)n(-c3ccccc3)c2n1	33%[activator]	?
CCOC(=O)C1Oc2ccccc2C(c2ccccc2)=C1C(C)=O (centres undefined)	1%	0.1[94.6 µM]
C#CCCCO/N=C1/C[C@@H](O)[C@@H](O)[C@@H]2[C@@H]3C(=O)N(C[C@@H]4CCCO4)C(=O)[C@H]3CC[C@@H]12	24%	1.6[11.7 µM]
C[C@@H](C(=O)O)c1ccc(C(=O)c2ccccc2)s1	16%	-5.1[24.8 µM]
COc1cccc(-c2cncnc2Nc2ccc(F)cc2)c1	79µM*	-9.7
N#Cc1cccc(-c2ccc3ncnc(NC4CCNCC4)c3c2)c1	9%	0.1
COc1cccc(-c2cc(NCc3cccs3)ncn2)c1	-20%	-3.8
CC(=O)OCC(NC(=O)C(Cc1ccccc1)NC(=O)OC(C)(C)C)C1OC(n2ccc(=O)[nH]c2=O)C(OC(C)=O)C1OC(C)=O (centres undefined)	?	0.7
CN(C)Cc1ccccc1-c1nc(N(C)C)c2ccccc2n1	10%	1.8
COC(=O)c1ccc(C(NC(=O)OCc2ccccc2)/C(=C/[C@@H](C)C(=O)NCc2cc(F)cc(F)c2)c2cccnc2)cc1 (some centres undefined)	31%[activator]	-4.9
CCOC(=O)C(CCc1ccccc1)NC1CCc2ccccc2N(CC(=O)O)C1=O (centres undefined)	0%&-14%	4.4&-2.7
CC[C@H](C)[C@H](NC(=O)[C@H](CCC(=O)O)NC(=O)CNC(=O)[C@@H](NC(=O)[C@H](CCC(=O)O)NC(=O)[C@H](CCC(=O)O)NC(=O)[C@H](CC(C)C)NC(=O)CNC(=O)[C@@H]1CCCN1C(=O)[C@H](CCC(=O)O)NC(=O)[C@@H](N)[C@@H](C)O)C(C)C)C(=O)N[C@@H](CCC(=O)O)C(=O)N[C@@H](CCC(N)=O)C(=O)N[C@@H](CCCCN)C(=O)N[C@@H](CCC(N)=O)C(=O)N[C@@H](CC(C)C)C(=O)N[C@@H](CCC(N)=O)C(=O)O	-7%	-1.3
C=C(C)C(=O)OCC1CN2C(CCC(C)C2c2ccc(Br)cc2)C(=O)O1 (centres undefined)	2%&14%&4%	2.8&1.7&1.4[11.7 µM]
COc1ccc2c(=O)cc(-c3ccccc3)oc2c1O	-23%	-6.3
COC(=O)[C@@]1(C)C=C[C@@H](Cc2ccccc2)N1C	-3%	?
O=C(c1cnccn1)N1CCC2(CCN(Cc3ccccc3)CC2)CC1	15%	-3.0
CCC(C)(Oc1ccc(C2(c3ccc(OC(C)(CC)C(=O)O)cc3)CCCCC2)cc1)C(=O)O (centres undefined)	25%	-2.1
c1nc(N2CCOCC2)c2cc(-c3ccoc3)ccc2n1	0%	8.4
COC(=O)c1cc(=O)c(O)c2c(O)c(O)ccc2c1	32µM*	0.4
COCCNC(=O)C1(C(F)(F)F)C/C(=C/CCO)CCCO1 (centres undefined)	15%	-1.5
O=C(CCCN1CCN2CCCC2C1)c1ccc(F)cc1 (centres undefined)	-5%	-0.5
O=C(O)c1ccc2c(c1)C(=O)N([C@H](Cc1ccc([N+](=O)[O-])cc1)C(=O)O)C2=O	22%	2.0
C[C@@]1(C(NC(=O)c2ccc(-c3ccccc3)cc2)c2ccc(Cl)cc2)C[C@H]1C1CCCCC1 (some centres undefined)	8%	-3.0
C/C(CCN1CCc2nc(-c3ccccc3)c(-c3ccccc3)cc2C1)=N\O[C@@H](C)c1cn([C@@H]2COC[C@@H]2O)nn1	1%	2.7[11.7 µM]
CN1CCN(c2nc(-c3ccccc3C(F)(F)F)nc3ccccc23)CC1	18%	-3.4
CCc1c2c(nc3ccc(OC)cc13)-c1nc3ccccc3c(=O)n1C2	6%	0.4

Later entries
SMILES	Sfp inh	Menin-MLL FL inh
COc1ccc([N+](=O)[O-])c2c1CCN2C(=O)CC[C@H](N)C(=O)O	-14%	?
C=C1C[C@@]23CC4C5[C@@]6(C)C[C@H](O)C[C@@]57C2[C@H](O)[C@@H]1[C@H](O)[C@H]3[C@H]7N4C6	26%	-0.2
CCc1cc2c(nc1CC)CCN(CC/C(C)=N/O[C@@H]1O[C@H](COC(C)=O)[C@H](OC(C)=O)[C@H](OC(C)=O)[C@H]1OC(C)=O)C2	7%	-4.7[11.7 µM]
COC(=O)C(C(=O)OC)C1O[C@@]23COCCC2(C)C3c2ccccc21 (some centres undefined)	7%	-0.6[11.7 µM]
O=C(O)c1ccccc1Nc1ccc(CCc2ccc(Cl)c(Cl)c2)cc1	4%	4.7
CCOC(=O)CCN1C(=O)[C@H]2[C@H]3[C@H](O)[C@H](O)C/C(=N/OC[C@@H](O)COCc4ccco4)[C@H]3CC[C@@H]2C1=O	-4%	-0.3[11.7 µM]
COc1ccc(C(=O)N2CCC3(CCCN(Cc4ccccc4)C3)CC2)cc1	27%	3.0
OC[C@H]1NC[C@@H](O)[C@@H](O)[C@@H]1O	-15%	-1.9
CCCC[C@@H]1CCCO[C@@](C(=O)NCc2ccccc2)(C(F)(F)F)C1	8%	-4.3
COc1cc(OC)c2c(c1C(CCN1CCCC1)c1ccc(N(C)C)cc1)OC(=O)CC2c1ccc(N(C)C)cc1 (centres undefined)	-16%	25
COc1cc(O)c(C(=O)/C=C\c2ccc3c(c2)OCO3)c(OC)c1	7%	-0.9[11.7 µM]
CC(CN(C)C)C(C)(O)Cc1ccc(Cl)cc1 (centres undefined)	-1%	2.3
COCCNc1nc(C)nc2c1nc(-c1ccccc1)n2CCCN1CCCCC1C (centres undefined)	19%	-7.1
CC(C)CO/N=C1/C[C@@H](O)[C@@H](O)[C@@H]2[C@@H]3C(=O)N(Cc4ccccc4)C(=O)[C@H]3CC[C@@H]12	14%	-2.3[11.7 µM]
Nc1ncnc2c1ncn2C1CC(O)C(CO)O1 (centres undefined)	?	18&-2.8
Fc1ccc(Nc2nc(-c3ccoc3)nc3ccccc23)cc1	7%	14
CCC(C)c1cc([N+](=O)[O-])cc([N+](=O)[O-])c1OC(C)=O (centres undefined)	1%	-3.1
O=C(N/N=C\c1ccc([N+](=O)[O-])o1)c1ccc(O)cc1	7%	4.6[24.8 µM]
CNC(=O)[C@]1(C(F)(F)F)C[C@H](CCC2CCCCC2)CCCO1	-4%	3.0
CC1(C)S[C@@H]2[C@H](NC(=O)[C@@H](N)c3ccccc3)C(=O)N2[C@H]1C(=O)O[C@H]1OC(=O)c2ccccc21	4%	1.6[24.8 µM]
CC(C)(C)NC[C@@H](O)COc1ccccc1C1CCCC1	-19%	-0.3[24.8 µM]
CCOC(=O)c1cnc2c(cnn2CC)c1NN=C(C)C	45µM*!	0.9&8.6
Cc1nc2cnc(N(C)C)nc2n(C2CC2)c1=O	26%	14
COc1ccc(-c2nc3cnc(OC)nc3n(-c3ccccc3)c2=O)cc1	-1%	7.7

Laid out differently: entries from further up
molecule | Sfp inh | Menin-MLL FL inh
COc1cc(OC)c2c(c1C(CCN1CCCC1)c1ccc(N(C)C)cc1)OC(=O)CC2c1ccc(N(C)C)cc1 (centres undefined) | -16% | 25
COc1cc(O)c(C(=O)/C=C\c2ccc3c(c2)OCO3)c(OC)c1 | 7% | -0.9[11.7 µM]
CC(CN(C)C)C(C)(O)Cc1ccc(Cl)cc1 (centres undefined) | -1% | 2.3
COCCNc1nc(C)nc2c1nc(-c1ccccc1)n2CCCN1CCCCC1C (centres undefined) | 19% | -7.1
CC(C)CO/N=C1/C[C@@H](O)[C@@H](O)[C@@H]2[C@@H]3C(=O)N(Cc4ccccc4)C(=O)[C@H]3CC[C@@H]12 | 14% | -2.3[11.7 µM]
Nc1ncnc2c1ncn2C1CC(O)C(CO)O1 (centres undefined) | ? | 18&-2.8
Fc1ccc(Nc2nc(-c3ccoc3)nc3ccccc23)cc1 | 7% | 14
CCC(C)c1cc([N+](=O)[O-])cc([N+](=O)[O-])c1OC(C)=O (centres undefined) | 1% | -3.1
O=C(N/N=C\c1ccc([N+](=O)[O-])o1)c1ccc(O)cc1 | 7% | 4.6[24.8 µM]
CNC(=O)[C@]1(C(F)(F)F)C[C@H](CCC2CCCCC2)CCCO1 | -4% | 3.0
CC1(C)S[C@@H]2[C@H](NC(=O)[C@@H](N)c3ccccc3)C(=O)N2[C@H]1C(=O)O[C@H]1OC(=O)c2ccccc21 | 4% | 1.6[24.8 µM]
CC(C)(C)NC[C@@H](O)COc1ccccc1C1CCCC1 | -19% | -0.3[24.8 µM]

Following part.
SMILES	Sfp inh	Menin-MLL FL inh
CNc1cc(-c2c(C)noc2C)ncn1	13%	?
COCCn1c(=O)c(-c2ccccc2)nc2cnc(OCc3ccccc3)nc21	-3%	1.8
COc1ncc2nc(-c3cn(C)c4ccccc34)c(=O)n(CCc3ccccc3)c2n1	0%	-2.2
N#Cc1cccc(NC(=O)N2CCCC3(CCN(C(=O)c4cccc(F)c4)CC3)C2)c1	6%	2.9
